# Bioassay records (PubChem BioAssay)
# PV pol inh – poliovirus RdRp elongation inhibitors, primary screen, biochemical, fluorescence polarization, total intensity; Genome polyprotein (Poliovirus type 1 (strain Mahoney)), P03300; poliovirus polymerase elongation; active compounds read low; % elongation, % (compound at 16.7 µg/mL); 150,000 tested, 0.66% active; AID 588519, 2011; in the data active = % elongation below about 90%; also: some results filed as inactive read as strong as hits
# Target sequence (P03300 1749-2209 limits assumed): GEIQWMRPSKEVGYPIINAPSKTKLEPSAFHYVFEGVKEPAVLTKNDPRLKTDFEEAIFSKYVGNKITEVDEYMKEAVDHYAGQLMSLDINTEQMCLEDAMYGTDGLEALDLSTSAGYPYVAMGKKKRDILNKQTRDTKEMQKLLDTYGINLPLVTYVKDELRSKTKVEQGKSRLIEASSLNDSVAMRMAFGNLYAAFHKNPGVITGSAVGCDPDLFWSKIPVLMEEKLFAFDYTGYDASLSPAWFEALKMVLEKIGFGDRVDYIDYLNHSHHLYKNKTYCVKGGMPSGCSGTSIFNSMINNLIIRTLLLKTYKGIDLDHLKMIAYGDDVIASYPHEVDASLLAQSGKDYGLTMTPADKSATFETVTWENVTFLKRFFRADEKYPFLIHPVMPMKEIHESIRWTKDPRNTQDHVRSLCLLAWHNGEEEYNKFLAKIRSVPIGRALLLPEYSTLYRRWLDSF
# PV pol inh intensity – also measured in PV pol inh; calls as there; % elongation; measured here: total intensity read-out; formula for this scale not given here;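 total fluorescence in place of polarization; lower means less elongation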
# * hit, by the source's call.
1: CSc1ccc(C2c3c(oc4ccc(F)cc4c3=O)C(=O)N2c2ccc(C)cn2)cc1 (stereo not given)
2: COc1cc(-c2nc(Cn3nnc(C(=O)Nc4cccc(Cl)c4)c3C)c(C)o2)cc(OC)c1OC
3: CC1CCN(C(=O)Cn2c(=O)n(CC3CCC(C(=O)NC(C)C)CC3)c(=O)c3sccc32)CC1 (stereo not given)
4: COC(=O)c1c(NC(=O)c2cc(=O)c3c(C)cc(C)cc3o2)sc2c1CCCC2
5: Cc1cccc(S(=O)Cc2ccc(C(=O)NC3CCCCCC3)o2)c1 (stereo not given)
assay / compound	1	2	3	4	5
PV pol inh	107	106	106	110	114
PV pol inh intensity	110	108	104	109	110

# As entered above.
# PV pol inh intensity, entry 2 is entered as 108
# PV pol inh, entry 4 is entered as 110

# Other results follow:
6: Cc1ccccc1CN1c2ccccc2-c2nc(SCC(=O)NCc3ccccc3)ncc2S1(=O)=O
7: O=S(=O)(c1cc(Br)c(Br)s1)N1CCN(c2ccccc2)CC1
8: CCCn1c2ccccc2c2cnn(CC(=O)NCCc3cc(OC)ccc3OC)c(=O)c21
9: CCOc1ccc2oc(=O)cc(CN3CCN(c4cc(C)ccc4C)CC3)c2c1
10: COc1cc(/C=C(\C#N)C(=O)Nc2ccc(C)cc2)ccc1OCc1cc(=O)n2nc(C)sc2n1
assay / compound	6	7	8	9	10
PV pol inh	97	109	105	97	103
PV pol inh intensity	87	115	105	101	104

11: Cc1ccc(OCC(=O)Nc2nnc(SCc3cc(=O)n4cc(C)ccc4n3)s2)cc1
12: Cc1ccccc1CN1C(=O)C(O)(CC(=O)c2ccccc2)c2cc(Cl)ccc21 (stereo not given)
13: COc1ccccc1Cn1c(CNS(=O)(=O)c2ccc(CC(C)C)cc2)nc2cccnc21
14: COc1ccccc1C(=O)N1CCN(Cc2cc(=O)oc3cc(C)ccc23)CC1
15: Cc1cccc(OCc2nc(CC(=O)Nc3ccc(C)c(C)c3)cs2)c1
assay / compound	11	12	13	14	15
PV pol inh	105	106	110	108	106
PV pol inh intensity	100	109	117	108	102

# Entries of single compounds, looked up by structure:
# CSc1ccc(C2c3c(oc4ccc(F)cc4c3=O)C(=O)N2c2ccc(C)cn2)cc1 (stereo not given) reads PV pol inh = 107; PV pol inh intensity = 110
# Cc1cccc(OCc2nc(CC(=O)Nc3ccc(C)c(C)c3)cs2)c1 reads PV pol inh = 106; PV pol inh intensity = 102

# Additional records
16: CC(C)NC(=O)C1CCCN(S(=O)(=O)c2ccc3c(ccn3C)c2)C1 (stereo not given)
17: Cc1cccc(C)c1NC(=O)N1CCC(C(N)=O)(N2CCCCC2)CC1
18: COc1ccc(CN(C(=O)c2cc(=O)c3ccccc3o2)C2CCS(=O)(=O)C2)cc1OC (stereo not given)
19: CC(=O)Nc1ccc(NC(=O)CSc2nc3ccccc3nc2N2CCOCC2)cc1
20: CCOc1ccc(NC(=O)c2cc(C)nc3c2c(C)nn3-c2cccc(F)c2)cc1
assay / compound	16	17	18	19	20
PV pol inh	108	105	120	106	111
PV pol inh intensity	114	110	124	111	110

21: Cc1ccc(Nc2sc(C(=O)c3ccccc3)c(N)c2S(=O)(=O)c2ccccc2)c(C)c1
22: CCOc1ccc(NC(=O)c2c(C)oc3nc(C)nc(N4CCOCC4)c23)cc1
23: CCc1nnc2c(NCCc3ccc(OC)c(OC)c3)nc3ccccc3n12
24: CCOC(=O)C1CCCN(S(=O)(=O)c2ccc3[nH]c(=O)oc3c2)C1 (stereo not given)
25: Cc1ccc(-c2cc(C(=O)Oc3ccccc3)c3cc(C)ccc3n2)cc1
assay / compound	21	22	23	24	25
PV pol inh	111	107	105	105	107
PV pol inh intensity	115	106	107	111	112

26: CCN(CC)CCCNC(=O)c1ccc2c(Cl)c3c(nc2c1)CCCC3
27: CCOc1ccc(CCNC(=O)c2ccc(CS(=O)(=O)c3ccccc3C)o2)cc1OCC
28: COCCCn1c(=N)c(C(=O)NCC2CCCO2)cc2c(=O)n3cc(C)ccc3nc21 (stereo not given)
29: COc1cccc2c1cc1c(=O)n(CC(=O)N3CCC(C)CC3)nc(C)n12
30: Cc1cc(Cl)ccc1NS(=O)(=O)c1ccc2c(c1)CCN2S(C)(=O)=O
assay / compound	26	27	28	29	30
PV pol inh	97	100	116	102	109
PV pol inh intensity	102	103	116	105	112

31: Cc1ccc(NC(=O)CC2Oc3ccc(C)cc3NC2=O)c(C)c1 (stereo not given)
32: CCc1nn(CC(=O)NCCN(CC(C)C)CC(C)C)c(=O)c2cc3sc(C)cc3n12
33: CCN(CC)C(=O)c1sc2c(c1C)c(=O)n(-c1ccc(OC)cc1OC)c(=O)n2CC(=O)c1ccc(Cl)cc1
34: O=C(CSCc1ccc(F)cc1)N1CCN(c2ccccc2F)CC1
35: COC(=O)c1ccc(C(=O)OC)c(NC(=O)N2CC3CCCN3c3ccccc32)c1 (stereo not given)
assay / compound	31	32	33	34	35
PV pol inh	105	101	112	105	112
PV pol inh intensity	107	108	100	109	115

36: COc1ccc(C(=O)N2c3ccc(C)cc3C(C)(c3ccccc3)CC2(C)C)cc1 (stereo not given)
37: CCCOc1ccc(NC(=O)CC2C(=O)N(c3cccc(OC)c3)C(=O)N2CCc2ccncc2)cc1 (stereo not given)
38: CC(=O)Nc1ccc(S(=O)(=O)NCC2CCC(C(=O)NCCc3ccccc3)CC2)cc1 (stereo not given)
39: CCCCOc1cccc(C(=O)Nc2cc3nn(-c4ccc(F)cc4)nc3cc2C)c1
40: COCCN1C(=O)c2oc3cc(C)cc(C)c3c(=O)c2C1c1cccc(O)c1 (stereo not given)
assay / compound	36	37	38	39	40
PV pol inh	105	105	106	103	107
PV pol inh intensity	112	104	113	108	114

41: CC(=O)N1c2ccc(S(=O)(=O)N3CCN(c4cccc(Cl)c4)CC3)cc2CC1C (stereo not given)
42: Cc1c2cnn(-c3ccccc3)c(=O)c2c(C)n1C(C)C(=O)Nc1ccccc1C(F)(F)F (stereo not given)
43: CCCn1cc(S(=O)(=O)c2ccc(OC)cc2)c(=O)c2cc(F)c(N3CCCCCC3)cc21
44: Cc1ccc(S(=O)(=O)NCCc2csc(-c3ccc(Cl)cc3)n2)cc1
45: COc1ccc(Nc2ncnc3c2cnn3C)c(OC)c1
assay / compound	41	42	43	44	45
PV pol inh	107	111	108	108	106
PV pol inh intensity	109	110	104	113	108

46: CCOC(=O)N1CCc2c(sc(NCc3cccs3)c2C(=O)Nc2cc(OC)ccc2OC)C1
47: Cc1ccc(-c2nc(CN3C(=O)CN=C(c4ccccc4Cl)c4cc(Cl)ccc43)c(C)o2)cc1
48: O=C(CCSCc1ccccc1Cl)NCCc1ccccc1
49: Cc1ccc(C(=O)N2c3ccc(C)cc3C(C)(c3ccccc3)CC2(C)C)cc1 (stereo not given)
50: Cc1nn(-c2ccccc2)c2nc(C3CC3)cc(C(=O)Nc3ccccc3F)c12
assay / compound	46	47	48	49	50
PV pol inh	108	109	112	101	110
PV pol inh intensity	103	113	104	107	115

51: CCOc1ccc(NC(=O)c2ccc3c(c2)CCN3S(=O)(=O)c2ccc(Cl)cc2)cc1
52: COc1ccccc1OC(C)C(=O)N1CCC(c2nc3ccccc3s2)CC1 (stereo not given)
53: O=C(Nc1cnn(Cc2ccc(Cl)cc2Cl)c1)c1noc2c1CCc1ccccc1-2
54: COc1ccc(Cl)cc1NC(=O)Cn1nnc2sc3c(c2c1=O)CCC(C(C)(C)C)C3 (stereo not given)
55: COc1ccc(N2CC(NC(=O)Cc3cccs3)CC2=O)cc1OC (stereo not given)
assay / compound	51	52	53	54	55
PV pol inh	105	111	102	110	106
PV pol inh intensity	106	102	106	113	99

56: COc1ccc(OC)c(CCNC(=O)CCCc2nnc3n(C)c(=O)c4sccc4n23)c1
57: CC(=O)c1cccc(NC(=O)CN2C(=O)c3cccnc3Sc3ccccc32)c1
58: Cc1nc(-c2ccc(S(=O)(=O)N3CCN(c4cccc(C(F)(F)F)c4)CC3)cc2)co1
59: COc1ccc(-c2cc(C(=O)NCCc3ccccc3)c3c(-c4ccc(Cl)cc4)[nH]nc3n2)cc1
60: Cc1ccc(-c2nnc(Nc3ccc(OCC(N)=O)cc3)c3ccccc23)cc1S(=O)(=O)NCC1CCCO1 (stereo not given)
assay / compound	56	57	58	59	60
PV pol inh	101	114	103	105	100
PV pol inh intensity	102	112	108	114	93

61: CCCCOc1cccc(C(=O)N(Cc2ccc(N(C)C)cc2)C2CCS(=O)(=O)C2)c1 (stereo not given)
62: Cc1nn(C(=O)c2ccc(Cl)cc2)c(C)c1Sc1ccc(Cl)cc1
63: CCOC(=O)c1cnn(-c2ccc(C(=O)Nc3cc(OC)c(OC)c(OC)c3)cc2)c1N
64: Cc1cc(F)ccc1NC(=O)C1CCCN(S(=O)(=O)c2ccc3c(c2)CCCC(=O)N3)C1 (stereo not given)
65: Cc1ccc(NC(=O)Cn2c(=O)oc3cc(S(=O)(=O)N4CCCCCC4)ccc32)cc1Cl
assay / compound	61	62	63	64	65
PV pol inh	103	102	110	104	102
PV pol inh intensity	102	107	113	106	100

66: CC(=O)N1CCCc2ccc(NC(=O)c3ccc(OC(C)C)cc3)cc21
67: Cc1ccc2nc(CN3CCN(C(=O)Nc4ccc(C)c(F)c4)CC3)oc2c1
68: Cc1ccccc1-c1noc(-c2cc(C(C)C)[nH]n2)n1
69: COc1ccc(Cn2c(C(=O)O)c(CNCCc3ccco3)c3ccc(OC)cc32)cc1
70: CCC1CN(C(=O)Nc2cccc(OC)c2)c2ccccc2O1 (stereo not given)
assay / compound	66	67	68	69	70
PV pol inh	105	108	111	115	106
PV pol inh intensity	107	102	110	111	99

71: Cc1ccc(-n2nc3c(=O)n(CC(=O)Nc4ccccc4F)nc(C)c3c2C)c(C)c1
72: COCCNC(=O)C1CCC(CNS(=O)(=O)c2ccc3c(c2)CC(C)N3C(C)=O)CC1 (stereo not given)
73: COc1cccc(CNC(=O)CCc2c(C)c3cc4c(C)c(C)oc4cc3oc2=O)c1
74: COc1cc(NC(=O)CCCc2nnc3n(C)c(=O)c4sccc4n23)cc(OC)c1OC
75: Oc1c(C(c2ccc(Cl)cc2)N2CCOCC2)sc2nc(-c3ccco3)nn12 (stereo not given)
assay / compound	71	72	73	74	75
PV pol inh	104	109	104	121	107
PV pol inh intensity	107	113	104	120	94

76: COc1cccc(N2CCN(c3ncnc4c3c(-c3ccccc3)cn4-c3ccc(C)cc3)CC2)c1
77: COc1cc(NC(=O)CCc2c(C)nn(-c3ccc4nncn4n3)c2C)cc(OC)c1OC
78: CCOC(=O)c1ccc(NC(=O)c2nn(C)c3c2COc2ccccc2-3)cc1
79: CCOC(=O)c1c(S(=O)(=O)NCC(=O)Nc2ccc(F)cc2C)c(C)n(C)c1C
80: COCc1nn2cc(-c3ccc(C)cc3)nc2s1
assay / compound	76	77	78	79	80
PV pol inh	103	109	112	107	109
PV pol inh intensity	99	105	94	108	106

81: Cc1ccc(-n2nc(CO)c(C(=O)NC(C)CCCc3ccccc3)n2)cc1C (stereo not given)
82: COc1ccc(OC)c(CCNC(=O)c2c(C)oc3ncn(C)c(=O)c23)c1
83: Cc1ccc(Cn2cccc(C(=O)Nc3ccc4c(c3)OCCO4)c2=O)cc1
84: COc1ccc(CCNC(=O)CCCCn2c(=O)c3ccccc3n(Cc3ccccc3Cl)c2=O)cc1OC
85: CCc1ccc(NS(=O)(=O)c2ccc3[nH]cc(C(=O)NCCc4cccc(C)c4)c(=O)c3c2)cc1
assay / compound	81	82	83	84	85
PV pol inh	101	113	107	103	107
PV pol inh intensity	98	116	107	106	115

86: COC(=O)c1c(NC(=O)c2ccccc2C(=O)O)sc2c1CCCC2
87: Cc1cccc(NC(=O)CSc2cc(C)c3ccccc3n2)c1
88: CCOC(=O)C1=C(CS(=O)(=O)c2ccc(Br)cc2)NC(=O)NC1c1ccccc1 (stereo not given)
89: COc1ccc(C2=NS(=O)(=O)N(C)C(C(=O)Nc3cc(C)ccc3O)=C2)cc1OC
90: Cc1ccc(C)c(N2CCN(C(=O)c3cnn(C(C)(C)C)c3C3CCN(C(=O)OC(C)(C)C)CC3)CC2)c1
assay / compound	86	87	88	89	90
PV pol inh	106	108	104	112	107
PV pol inh intensity	100	109	106	109	110

# Quoted at random: two records from the list
88: CCOC(=O)C1=C(CS(=O)(=O)c2ccc(Br)cc2)NC(=O)NC1c1ccccc1 (stereo not given)
89: COc1ccc(C2=NS(=O)(=O)N(C)C(C(=O)Nc3cc(C)ccc3O)=C2)cc1OC
assay / compound	88	89
PV pol inh	104	112
PV pol inh intensity	106	109

# Next compounds follow.
91: N#Cc1c(-n2ncnc2-c2ccccc2Cl)sc2c1CCCCC2
92: Cc1ccc(CN(Cc2cccn2-c2nnc(N3CCCC3=O)s2)C(=O)Nc2cc(C)cc(C)c2)cc1
93: CCN(CC)CCNC(=O)c1c2c(nc3ccccc13)C(=O)N(C1CCCCC1)C2
94: COC(=O)c1ccc(NC(=O)C2CCN(C(=O)c3ccc(F)cc3)CC2)cc1
95: Fc1ccc(-n2ncc3c(Nc4ccc(Oc5ccccc5)cc4)ncnc32)cc1
assay / compound	91	92	93	94	95
PV pol inh	108	107	104	111	109
PV pol inh intensity	112	107	107	112	109

96: Cc1ccc2cccc(NC(=O)c3ccc(OC(C)C)cc3)c2n1
97: O=S(=O)(NCCc1csc2nc(-c3ccc(Cl)cc3)nn12)c1ccc(Oc2ccccc2)cc1
98: Cc1cc(C)cc(OCC(=O)Nc2ccc(Cl)c(-c3nc4ncccc4o3)c2)c1
99: COc1ccc(NC(=O)CNC(=O)Cn2ccc3ccccc3c2=O)c(OC)c1
100: Cc1cc(C)c(NC(=O)c2c(C)oc3c2C2=NCCN2C=N3)c(C)c1
101: COc1ccc(-c2nc(CSc3nncn4c3cc3occc34)c(C)o2)cc1
assay / compound	96	97	98	99	100	101
PV pol inh	101	107	102	103	104	106
PV pol inh intensity	97	110	100	105	105	103

# Only part of the results is shown. The share of hits here may be higher or lower than overall.
